VACV Venus inh = inhibitors of vaccinia virus (Venus reporter); Vaccinia virus Venus reporter expression, fluorescence; Potency, µM (highest dose often 36.5 µM), for the others: at the highest dose activity change, negative = inhibition, usual class: inhibitors; actives 0.46% (n = 330,000); AID 720580; active means well fitted inhibition curve with a large enough effect; inconclusive means small, poorly fitted or top-dose-only effect; inactive means no such curve, though single readings can be large or run the other way; tested in A549 cells; also: nearly all actives have a fitted effect of over 30% in size; inactives centre near -10
Vaccinia mCherry = vaccinia inhibition (mCherry reporter) | Vaccinia virus mCherry reporter infection, fluorescence; about a quarter of the inactives have no number | Potency, µM (doses to about 36.5 µM), for the others: top-dose activity change, negative = inhibition, usual class: inhibitors | actives 0.63% (n = 310,000) | AID 720579; active = well fitted inhibition curve with a large enough effect; inconclusive = small, poorly fitted or top-dose-only effect; inactive = no such curve, though single readings can be large or run the other way; tested in A549 cells; also: nearly all actives have a fitted effect of over 35% in size; inactives centre near -10
Numbers without * were called inactive; i = inactive; ? = inconclusive; / = not tested or not shown; & = joins results of further samples; [ ] = dose if it differs, or a comment. % is scaled to controls: 0 for no effect and ±100 for the full control effect; potency is read from the fitted curve at half-maximal effect.

No.	SMILES	Vaccinia mCherry	VACV Venus inh
1	CCOc1ccc(N2C(=O)NC(=O)/C(=C\c3ccc(N4CCOCC4)cc3C)C2=O)cc1	-9%	-7%
2	COc1ccc(Br)cc1CNC(=O)C1CCCN(S(C)(=O)=O)C1 (centres undefined)	-11%	-7%
3	CN(C)S(=O)(=O)c1ccc(/C(O)=C2/C(=O)C(=O)N(CCCN3CCOCC3)C2c2ccncc2)cc1 (centres undefined)	-21%	-11%
4	COc1cccc(C(=O)Nc2nnc(-c3ccccc3)s2)c1OC	i	-10%
5	O=C1CC[C@@H](C(=O)N2CSC[C@@H]2C(=O)Nc2cccc(C(F)(F)F)c2)N1	i	-5%
6	CCCCC(=O)Nc1ccc(C(=O)OCc2cc(=O)n3nc(C4CC4)sc3n2)cc1	3%	-5%
7	CCc1ccccc1NC(=O)CSc1nc2n[nH]c(C)c2c(=N)n1-c1cccc(C)c1	-17%	-18%
8	CSCC[C@H](NC(=O)C1CCCC1)c1nc2ccccc2[nH]1	-11%	-15%

Further entries follow.
No.	SMILES	Vaccinia mCherry	VACV Venus inh
9	Cc1ccc(C(C)(C)C)cc1S(=O)(=O)NC(=O)c1ccccc1	-10%	-4%
10	Cc1c(C(=O)N2CC(C)OC(C)C2)sc2nc(-c3ccc(F)cc3)cn12 (centres undefined)	-8%	-11%
11	CC1CCN(C(=O)COC(=O)[C@H](C)NS(=O)(=O)/C=C/c2ccccc2)CC1	/	-3%
12	N=c1sccn1CC(=O)Nc1ccccc1Oc1ccccc1	/	-9%
13	CC(C)(C)C(=O)NCCn1ccc2ccccc21	-27%	-6%
14	Cc1sc2ncnc(OCC(=O)NCc3cccs3)c2c1C	-17%	2%
15	CCS(=O)(=O)N1CCc2cc(C(=O)NCCc3ccc(OC)cc3)ccc21	i	-15%
16	CN(C)CCC=C1c2ccccc2CCc2ccccc21	?	-16%&-25%

Given screen by screen: part of the list above
(12) N=c1sccn1CC(=O)Nc1ccccc1Oc1ccccc1
(13) CC(C)(C)C(=O)NCCn1ccc2ccccc21
(14) Cc1sc2ncnc(OCC(=O)NCc3cccs3)c2c1C

assay / compound | 12 | 13 | 14
Vaccinia mCherry | / | -27% | -17%
VACV Venus inh | -9% | -6% | 2%

Going on with the list.
No.	SMILES	Vaccinia mCherry	VACV Venus inh
17	C=CCn1c(SCC(=O)NC2(C#N)CCCCC2)nnc1-c1ccncc1	i	-1%
18	O=C(O)CCC(=O)Nc1nnc(C(F)(F)F)s1	/	?
19	Cc1ccccc1NC(=O)CSc1[nH]c(=O)cc(C)c1C#N	-17%	-12%
20	O=C(OCc1cc(=O)n2ccsc2n1)c1ccccc1NCCO	i	0%
21	COc1cccc(CNC(=O)[C@@H]2CCCN2C(=O)[C@@H]2CCCN2C(=O)c2ccccc2)c1	35%[activator]	2%
22	COc1ccc2ccccc2c1/C=N/NC(=O)c1nnn(-c2nonc2N)c1C(C)C	-26%	-16%
23	Cc1ccc(C(=O)Nc2ccc(F)cc2)cc1S(=O)(=O)N1CCCCCC1	-29%	-24%
24	O=C1c2ccccc2C(=O)C12OC2c1cccc2ccccc12 (centres undefined)	i	9%

Next entries
No.	SMILES	Vaccinia mCherry	VACV Venus inh
25	c1cc2c3c(cccc3c1)NC1(CCC3(CC1)Nc1cccc4cccc(c14)N3)N2	?	10µM*
26	Nc1ccc2ccccc2c1C(=O)c1ccccc1	?	4%
27	CC1CCCC(=C\c2ccccc2)/C1=N/O (centres undefined)	-17%	-5%
28	CC(=O)NS(=O)(=O)c1ccc(N=NN2CCOCC2)cc1	-11%	-9%
29	CCC(C)c1ccccc1NC(=O)COC(=O)c1ccc2[nH]c3c(c2c1)CCCC3 (centres undefined)	?	?
30	COc1cc(OC)cc(C(=O)NNC(=O)CCCOc2ccccc2)c1	-2%	-13%
31	CC1CN(C(=O)c2ccccc2Oc2ccccc2)CC(C)O1 (centres undefined)	-7%	-14%
32	O=C(NC1CCCC1)c1ccc2c(=O)n(Cc3ccccc3)c(SCc3cccc([N+](=O)[O-])c3)nc2c1	i	-9%

Later entries
No.	SMILES	Vaccinia mCherry	VACV Venus inh
33	COc1cccc2c1C(=O)c1c(O)c3c(c(O)c1C2=O)C[C@@](O)(C(=O)CO)C[C@@H]3O[C@H]1C[C@H](N)[C@H](OC2CCCCO2)[C@H](C)O1 (some centres undefined)	311%[activator]	441%[activator]
34	CCOC(=O)CCCn1c(C)nc(=O)c(-c2ccccc2)c1C	/	?
35	Brc1c(NC2=NCCN2)ccc2nccnc12	-9%	-12%
36	CC(/C=N\NC(=O)c1cccnc1)c1ccccc1 (centres undefined)	-2%	1%
37	CC(/C=C/C=C/c1ccccc1)=N/NC(=O)CNc1ccc(C)cc1	-18%	-10%
38	Cc1ccc(C)c(NS(=O)(=O)c2c(C)nc3sccn3c2=O)c1	i	-17%
39	COc1ccccc1NC(C)C(=O)c1c(C)[nH]c2ccccc12 (centres undefined)	-5%	-26%
40	CCCS(=O)(=O)NCCc1cc2ccc(C)cc2[nH]c1=O	i	-3%

Additional records:
No.	SMILES	Vaccinia mCherry	VACV Venus inh
41	O=C(/C=C/c1ccc(O)cc1)c1ccc(NC2=C(N3CCCCC3)C(=O)c3ccccc3C2=O)cc1	1.4µM*	?
42	O=C(CSc1nc2c([nH]c3ccccc32)c(=O)n1-c1ccc(Cl)cc1)N1CCCC1	0%	4%
43	O=C(NCC1CC1)c1csc(COCCO)n1	-1%	0%
44	CC(C)Oc1ccc(C(=O)N2CCN(C(=O)c3ccco3)CC2)cc1	i	-2%
45	COc1ccc(/C=C/C(=O)c2ccc(O)cc2O)cc1OC	-23%	?
46	Cc1nc2nc(C)c(NS(=O)(=O)c3ccc(CC(C)C)cc3)c(=O)n2[nH]1	-4%	-13%&-6%
47	COC(=O)C1CCN(C(=O)/C=C/c2ccc(OC)cc2)CC1	-10%	-6%
48	COC(=O)[C@@H](Cc1ccccc1)NC(=O)NCCc1c[nH]c2ccccc12	i	-9%

Next part.
No.	SMILES	Vaccinia mCherry	VACV Venus inh
49	CCCn1c(CCc2ccccc2)nnc1SCC(=O)N1CCCC1	i	-4%
50	CN(Cc1cnccn1)C(=O)c1cc(COc2cccc(C(F)(F)F)c2)on1	i	-11%
51	CN(Cc1cc([N+](=O)[O-])ccc1Cl)C(=O)C[n+]1ccccc1	?	-1%
52	COc1cccc(NC(=O)CNS(=O)(=O)c2ccc3nc(C)sc3c2)c1	i	-12%
53	CCCc1cc(C(=O)Nc2c(C)nn(Cc3ccc(C)cc3)c2C)no1	-16%	-2%
54	c1ccc(CCN2CCC3(CC2)OCCO3)cc1	i	-11%
55	O=S(=O)(Nn1cnnc1)c1ccc2ccccc2c1	0%	-20%
56	Cc1ccc(-c2nc(Cl)nc3ccccc23)cc1	-9%	-14%

Next records:
No.	SMILES	Vaccinia mCherry	VACV Venus inh
57	Cc1ccc(S(=O)(=O)n2nnc3ccccc32)c(C)c1C	-7%	0%
58	Cc1cc(Nc2ccccc2)n(C(=O)c2ccc(Cl)cc2)n1	-6%	61%[activator]
59	N/C(=N\OC(=O)c1ccccc1)c1cccnc1	i	-21%
60	O=C(c1ccc(CN2CCc3ccccc3C2)cc1)N1CCCCC1	/	-15%
61	O=C(NCc1cccs1)c1cc2ccccc2o1	i	-24%
62	COc1ccc(C2c3ccc4ccccc4c3Oc3ncn(CCCO)c(=N)c32)cc1OC (centres undefined)	-6%[7.34 µM]	-24%[7.34 µM]
63	COc1ccccc1-c1ncn(Cc2cccc(-c3ccccc3)c2)c1CC(C)C	?	?
64	CC(=O)N=C1C=CC(=CN(O)C(C)(C)Cc2ccccc2)C=C1	-2%	-3%

Single records (already shown). Screens in order: Vaccinia mCherry	VACV Venus inh
COc1ccc(C2c3ccc4ccccc4c3Oc3ncn(CCCO)c(=N)c32)cc1OC (centres undefined) is listed with -6%[7.34 µM]	-24%[7.34 µM]
Cc1cc(Nc2ccccc2)n(C(=O)c2ccc(Cl)cc2)n1 is listed with -6%	61%[activator]

Other structures follow.
No.	SMILES	Vaccinia mCherry	VACV Venus inh
65	CCOC(=O)[C@@H]1[C@H]2COc3cc(OC)ccc3[C@@H]2N2C(=O)N(c3ccc(Cl)cc3)C(=O)[C@@]12C	-15%	-2%
66	Cc1ccc(NC(=O)CSc2nc3c(sc4ccccc43)c(=O)n2CCCC(=O)NC2CCCC2)cc1C	-2%	-7%
67	COc1ccc(C(=O)Nc2cc3c(cc2C#N)OCO3)cc1S(=O)(=O)NCc1ccco1	i	0%
68	CCOc1c(Br)cc(C2CC(=O)Nc3cc4c(cc32)OCO4)cc1OC (centres undefined)	-27%[7.34 µM]	-20%[7.34 µM]
69	COc1ccc(NS(=O)(=O)c2ccc(NS(=O)(=O)c3ccc(C)cc3)cc2)nn1	/	-8%
70	COc1ccc(C(=O)C[n+]2ccc3c(c2)nc(-c2cc(OC)c(OC)cc2OC)n3C)cc1	i	-7%
71	Cc1ccc(S(=O)(=O)N2CCN(C(=O)c3ccc(-n4cncn4)c([N+](=O)[O-])c3)CC2)c(C)c1	-20%	?
72	COc1cc(CN2C[C@@H](CO)O[C@@H](n3cnc4c(NC5CCCC5)ncnc43)C2)cc(OC)c1OC	23%	-1%

(list continues)
No.	SMILES	Vaccinia mCherry	VACV Venus inh
73	CCN(CC)c1ccc(/C=C2\SC(=O)N(C(C)C)C2=O)o1	i	40%[activator]
74	CCCCc1ccc(NC(=O)N[C@@H](CC(C)C)C(=O)O)cc1	-2%	-9%
75	CC1=CC(C)(C)Nc2ccc(OC(=O)CN3C(=O)C4CCCCC4C3=O)cc21 (centres undefined)	-3%	32%[activator]
76	Cc1cccc(OCC(=O)Nc2ccc(Cl)c(-c3nc4ncccc4o3)c2)c1C	-22%	-20%
77	CCN(CC)S(=O)(=O)c1cccc(NC(=O)c2cc(=O)[nH]c3ccccc23)c1	-24%	-18%
78	CCSc1nnc2c(n1)OC(c1ccc(C)cc1)N(C(C)=O)c1ccccc1-2 (centres undefined)	-14%	-8%
79	CC(c1ccccc1)N1CCc2[nH]c(=S)[nH]c(=O)c2C1 (centres undefined)	i	-1%
80	COC(=O)c1ccc(/C=N/Nc2nc(-c3ccccc3)cs2)cc1	i	-13%

Further compounds
No.	SMILES	Vaccinia mCherry	VACV Venus inh
81	Cc1noc(/C=C/N(C)C)c1S(=O)(=O)N(C)CC(=O)NC1CCCCC1	-27%	-4%
82	O=C(CSc1nc2c(c(=O)[nH]1)CCC2)Nc1ccccc1F	-4%	8%
83	CC(C)(C)N(Cc1ccccc1)C(=O)COC(=O)CN1C(=O)C2CC=CCC2C1=O (centres undefined)	-5%	-13%
84	COc1ccc(C)cc1NC(=O)c1ccc(CN2CCN(c3ccccc3)CC2)cc1	-6%	-3%
85	CCOC(=O)C1=C(C)NC(=O)CC1c1cc2c(cc1[N+](=O)[O-])OCO2 (centres undefined)	-9%	-4%
86	CC(NC(=O)CN1C(=O)NC2(CCCCCCC2)C1=O)c1ccccc1 (centres undefined)	-25%	-13%
87	Fc1ccc(-c2nc(Nc3ccc(F)c(Cl)c3)nc3c2COc2ccccc2-3)cc1	3%	-1%
88	O=S(=O)(c1cccs1)N1CCN(CCOc2ccccc2)CC1	-11%	-7%

(cont.)
No.	SMILES	Vaccinia mCherry	VACV Venus inh
89	CCOC(=O)COc1nc(Nc2ccccc2C)nc(N(C)C)n1	-16%	-13%
90	COC(=O)c1ccc(COc2ccc(/C=N/N3CCN(C)CC3)cc2)cc1	1%	6%
91	COc1ccccc1-c1cccc([C@@H]2C[C@H]3[C@H](CON3C)CN2Cc2cc(Cl)cc(Cl)c2)c1	-21%	4%
92	Cc1ccccc1N(CC(=O)N/N=C/c1cc(C)n(-c2ccccc2C)c1C)S(C)(=O)=O	/	1%
93	CSc1ccccc1OCc1cc(C(=O)NCCc2ccco2)no1	-14%	-4%
94	O=C(Cc1cccc(NC(=O)C2CCCN(C(=O)C3CCCCC3)C2)c1)Nc1cccc(C(=O)N2CCOCC2)c1 (centres undefined)	-18%	4%
95	CC1CCCC(C)N1C(=O)CSc1nnc(-c2cccs2)o1 (centres undefined)	0%	-17%
96	Cc1cc(C)cc(NC(=O)C(CC(C)C)NC(=O)C2CCCCC2)c1 (centres undefined)	5%	-6%

(further entries)
No.	SMILES	Vaccinia mCherry	VACV Venus inh
97	O=C(/C=C/c1ccco1)NCCCN1CCOCC1	i	-5%
98	C[C@]12CCC3c4ccc(O)cc4CCC3C1CCC2OC(=O)CCC1CCCC1 (some centres undefined)	-12%	-7%
99	CS(=O)(=O)N1CCN(c2ccc(NC(=S)NC(=O)c3ccccc3[N+](=O)[O-])cc2)CC1	i	-9%
100	O=[N+]([O-])c1ccc2c(c1Nc1ccccc1)=NC1(CCCCC1)N=2	i	-19%
101	CCOC(=O)c1ccccc1NC(=O)N1CCCN(S(=O)(=O)c2ccc3c(ccn3CC)c2)CC1	-18%	7%
102	O=C(COc1ccc(F)cc1Cl)Nc1ccccc1C(=O)N1CCCCC1	i	-21%
103	CCn1c(SCC(=O)Nc2ccc(F)cc2F)nc2c(c1=O)SCC2	-11%	1%
104	O=C(N/C(=C/c1cccs1)C(=O)N1CCOCC1)c1cccs1	i	3%

Continued:
No.	SMILES	Vaccinia mCherry	VACV Venus inh
105	CC1=CC(C)(C)N(C(=O)C(C)N2C(=O)c3ccccc3C2=O)c2ccc(C)cc21 (centres undefined)	/	-22%
106	Cc1ccc(C)c(S(=O)(=O)N=Nc2c(O)[nH]c3ccccc23)c1	1%	-1%
107	COc1ccc(N2CCN(C(=O)Cc3coc4cc(C)ccc34)CC2)cc1	-7%	-4%
108	CSc1nc2[nH]c(=O)n(O)c(=O)c2n1Cc1ccccc1	-21%	-12%
109	O=C(N/N=C/c1ccc([N+](=O)[O-])s1)c1ccccc1Br	?	11µM*
110	CCOc1ccccc1C(=O)Nc1ccc(S(=O)(=O)Nc2nc(C)cc(C)n2)cc1	2%	3%
111	COCCn1c(SCC(=O)c2ccccc2)nc2c(c1=O)SCC2	i	-18%
